High-throughput results (PubChem)
YopH inh = YopH tyrosine phosphatase inhibitors, primary screen, biochemical, fluorescence Ex485/Em525. inhibition, %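 (about 10 µM by stock and volumes)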. 0.16% of 140,000 active;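 active means inhibition of 50% or more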;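 further: controls were vehicle for no effect and minimum signal wells for full effect; inactives centre near -20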
RecA splice inh = Mtb RecA intein splicing inhibitors, primary screen, biochemical, fluorescence, HTS; cell-free RecA intein splicing; inhibition, %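 (about 9 µM by stock and volumes)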; 0.75% of 290,000 active; in the data active means inhibition above about 30%; inconclusive means no clear call, values can overlap the other calls;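 further: 0% = vehicle wells and 100% = reference inhibitor control wells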
Target sequence (P9WHJ3 whole entry, looked up, canonical isoform): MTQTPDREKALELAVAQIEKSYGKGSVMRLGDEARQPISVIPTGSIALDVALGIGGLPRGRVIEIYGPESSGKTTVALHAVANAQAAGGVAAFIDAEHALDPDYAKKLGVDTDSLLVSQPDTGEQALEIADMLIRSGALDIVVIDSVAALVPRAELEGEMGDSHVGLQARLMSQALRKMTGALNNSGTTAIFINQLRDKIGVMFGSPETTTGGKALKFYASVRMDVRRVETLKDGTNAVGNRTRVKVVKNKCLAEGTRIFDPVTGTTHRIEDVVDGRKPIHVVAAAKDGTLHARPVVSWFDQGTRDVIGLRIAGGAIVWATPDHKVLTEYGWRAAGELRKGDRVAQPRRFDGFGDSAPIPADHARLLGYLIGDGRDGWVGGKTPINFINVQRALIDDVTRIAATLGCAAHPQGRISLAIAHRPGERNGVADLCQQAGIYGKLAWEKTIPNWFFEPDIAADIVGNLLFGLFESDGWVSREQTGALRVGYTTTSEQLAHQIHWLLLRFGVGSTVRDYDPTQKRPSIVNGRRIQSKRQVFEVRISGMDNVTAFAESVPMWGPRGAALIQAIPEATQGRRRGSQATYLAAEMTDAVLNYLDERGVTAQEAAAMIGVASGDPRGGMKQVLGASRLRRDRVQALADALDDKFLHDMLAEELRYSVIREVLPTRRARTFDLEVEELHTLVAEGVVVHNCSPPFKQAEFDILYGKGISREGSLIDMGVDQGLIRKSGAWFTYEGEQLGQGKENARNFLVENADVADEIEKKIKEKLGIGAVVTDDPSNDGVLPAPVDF
Arbovirus anti = antivirals against arbovirus infection, primary screen, cell-based, full library, 10K replicate subset | 0.37% of 200,000 active | arbovirus infection cell-based antiviral screen | inhibition, % at 10 µM;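 active means inhibition from about 30%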;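 further: bluetongue infection of BSR cells; cell survival read as ATP light after 72 h; 0% = infected wells without compound and 100% = uninfected wells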
Mtb bLac sens = beta-lactam sensitization of Mtb H37Rv, H37Rv; M. tuberculosis H37Rv growth with meropenem, percent inhibition; hits of this screen are not shown here; inhibition, % at 25 µM; 0.27% of 330,000 active;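 active means about 74% or more and at least 40 points above the plate without the antibiotic, then above 30% in a dose series; inconclusive means first-round hits that could not be retested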;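 further: growth measured after seven days incubation then overnight dye step; 0% = bacteria only wells and 100% = bacteria with antibiotic; twin plates without the antibiotic show which effects depend on it; some results filed as inactive read as strong as hits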
Mtb H37Rv = M. tuberculosis H37Rv growth inhibitors, H37Rv strain (AID 1626). M. tuberculosis H37Rv growth inhibition; higher % means a stronger effect. inhibition, % at 10 µM, or IC50 in µM where a hit was titrated. 0.95% of 220,000 active;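 active means confirmed in a dose series; inconclusive means inhibition above 80% but not taken into the dose series; inactive means below 80% or under 30% at every dose of the series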;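 further: bacteria incubated seven days before Alamar blue readout; 0% = bacteria only wells and 100% = bacteria with antibiotic wells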
Arbovirus anti repeat = recorded beside Arbovirus anti, whose call it bears; inhibition, %; measured here: 10K subset replicate screen; many hits read low in the repeat;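 first of two repeat runs on a subset; 0% = infected and 100% = uninfected wells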
* marks the source's active call; other numbers are inactive results; u = inconclusive; x = no result given.

SMILES | YopH inh | RecA splice inh | Arbovirus anti | Mtb bLac sens | Mtb H37Rv | others
COc1ccc2c(c1)c(C(=O)CN1CCN(Cc3ccccc3)CC1)c(C)n2C | x | -0.6 | x | -1 | -1%
Cc1ccc(CCNC(=O)CN2C(=O)COc3ccccc32)cc1 | -54 | -1.0 | 3 | 7 | 5%
Cc1cc[n+](Cc2ccc([N+](=O)[O-])cc2)cc1 | x | 1.4 | -2 | -7 | 2%
Cc1nc(N)nc(COc2ccccc2)n1 | x | 0.8 | x | -5 | -6%
O=C(Nc1ccccc1O)c1c(O)c2c([nH]c1=O)CCCC2 | x | 0.0 | 22 | -4 | 8%
CCN(CC(=O)Nc1c(F)cccc1F)C(=O)c1ccc(=O)n(Cc2ccccc2)n1 | x | -1.1 | x | -6 | x
N/C(Cc1ccc(Cl)cc1Cl)=N\OC(=O)c1cccs1 | -32 | 0.9 | -12 | 3 | -10%
COc1ccc(Br)cc1CNCCc1ccc2c(c1)OCO2 | x | 2.8 | x | 4 | x
S=C(NCCc1ccccc1)NC1CCC(NC(=S)NCCc2ccccc2)CC1 (stereo not given) | x | -0.1 | -6 | 0 | 0%
COc1ccccc1NC(=O)Cc1nnc(SCC(=O)NC2CCCCC2)n1C | x | -1.2 | x | -7 | x
O=C(NC1=NCCS1)c1ccccc1Br | x | -0.1 | x | -4 | x
CCCCCCN(C(=O)CCCCCN1C(=O)NC(c2ccc(-c3ccccc3)cc2)C(C(=O)OCc2ccccc2)=C1C)C(C(=O)NCCCC)c1ccc(OCC(=O)OC)c(C(=O)OC)c1 (stereo not given) | x | 0.8 | x | 1 | x
Cc1cc(Cl)ccc1OCC(=O)OCC(=O)N(CC(C)C)c1c(N)n(Cc2ccccc2)c(=O)[nH]c1=O | x | 1.8 | x | -4 | x
CC1(c2nnc(-c3ccc(Cl)cc3)o2)CC(c2cccnc2)=NO1 (stereo not given) | x | -1.3 | x | -14 | -10%
Cn1cnnc1SCC(=O)Nc1ccc(S(=O)(=O)N2CCCC2)cc1 | 17 | -0.6 | -4 | x | -12%
CC(C)c1nnc(NC(=O)c2cccs2)s1 | x | -1.9 | 5 | -6 | 1% | Arbovirus anti repeat=4
O=c1oc(/C=C/c2ccccc2)nc2sc3c(c12)CCC3 | -17 | -5.3 | 66* | 92 | -3%
Cc1nc([N+](=O)[O-])c(Br)n1Cc1ccccc1 | x | -0.3 | x | 100 | 29%
Cn1c(CCN2CCOCC2)nc2cc(NC(=O)c3cccs3)ccc21 | x | -1.1 | 8 | u | 4%
CCC(=NCC1CCCO1)c1c(O)n(-c2ccccc2C)c(=O)[nH]c1=O (stereo not given) | x | 4.5 | x | 1 | 9%
CC(C(=O)NCC1CCCCC1)N1CCc2ccccc2C1 (stereo not given) | x | -1.5 | 19 | 7 | -3%
Cc1ccc(OCC(=O)Nc2cccc(-c3nnc(-c4ccccc4)o3)c2)cc1 | -12 | -1.9 | 0 | -5 | x
Cc1noc(C)c1COC(=O)C1COc2ccccc2O1 (stereo not given) | -43 | 1.0 | 0 | -2 | -2%
Cc1[nH]c(=S)c(C#N)c(-c2ccco2)c1C(=O)N(C)C | x | -0.4 | 12 | -3 | -5%
CCOC(=O)/C(C#N)=C\c1c(C)cc(C)c(COC(C)=O)c1C | -18 | 2.5 | 3 | -4 | -7%
Cc1ccc(CNC(=O)C2CC(=O)N(c3ccc(OCC(=O)N4CCCC4)cc3)C2)cc1 (stereo not given) | -19 | -0.2 | 8 | -3 | -1%
Cc1nc2c(-c3ccc(F)cc3)c(C)nn2c(C)c1CCC(=O)Nc1ccccc1 | x | -7.2 | x | -2 | 5%
Cc1ccc(S(=O)(=O)NCC(=O)OCC(=O)NC(=O)c2cccn2C)cc1 | -8 | 0.0 | -3 | 7 | -4%
Clc1ccc(N/N=C/c2cccs2)nn1 | x | 1.1 | 7 | 4 | -1%
C[C@@H]1NC(=O)c2cc([N+](=O)[O-])cc(I)c2NCCCC[C@@H](C(N)=O)NC(=O)[C@H](CC(N)=O)NC1=O | -10 | x | 1 | -10 | -11%
O=C(Nc1nc(-c2ccccn2)cs1)c1cc2ccccc2o1 | x | -12 | -24 | 82 | 2.6µM*
CC(C)=N/N=C1/NC(=O)C(Cc2ccccc2)S1 (stereo not given) | x | 2.1 | x | 98 | x
O=C(NCC1CCCO1)c1cn(-c2ccccc2)nc1-c1ccccc1 (stereo not given) | x | 4.2 | -3 | 6 | x
O=C1c2ccccc2NC2(CCCC2)N1O | -23 | 2.9 | 17 | 3 | -1%
CCOC(=O)c1ccc(NC(=O)c2ccc(NS(C)(=O)=O)cc2)cc1 | 10 | -1.6 | 3 | 10 | 17%
Oc1ccccc1CN1CCC(C(O)(c2ccccc2)c2ccccc2)CC1 | -36 | 1.2 | 4 | 4 | 6%

Continued (three carried over from the part before).
SMILES | YopH inh | RecA splice inh | Arbovirus anti | Mtb bLac sens | Mtb H37Rv | others
O=C1c2ccccc2NC2(CCCC2)N1O | -23 | 2.9 | 17 | 3 | -1%
CCOC(=O)c1ccc(NC(=O)c2ccc(NS(C)(=O)=O)cc2)cc1 | 10 | -1.6 | 3 | 10 | 17%
Oc1ccccc1CN1CCC(C(O)(c2ccccc2)c2ccccc2)CC1 | -36 | 1.2 | 4 | 4 | 6%
O=C(N/N=C/c1ccc2c(c1)OCO2)c1ccc(Br)o1 | -4 | -1.3 | -9 | -5 | -8%
CC(CC12CC3CC(CC(C3)C1)C2)NCc1ccccc1O (stereo not given) | x | 2.3 | x | 72 | x
Brc1ccccc1CNCCc1ccc2c(c1)OCO2 | x | -4.3 | x | -6 | x
CCOC(=O)N1CCN(c2ncnc3c2[nH]c2ccc(OC)cc23)CC1 | 14 | 3.7 | -9 | -7 | 1%
O=C(CN(Cc1ccccc1)C(=O)c1csnn1)NCc1ccc2c(c1)OCO2 | x | -4.4 | x | 2 | x
CC1(c2ccc(OC(F)F)cc2)NC(=O)N(CC(=O)Nc2ccc3[nH]c(=O)[nH]c3c2)C1=O (stereo not given) | x | -6.6 | x | -10 | x
COc1ccccc1/C=C/C(=O)NC(=S)Nc1ccccn1 | x | 2.3 | x | 4 | x
CCCN(CCC)S(=O)(=O)c1cc2c3c(c1)CCN3C(=O)CC2 | x | 0.7 | x | -3 | x
CCOC(=O)N/N=C(\C)c1ccc(Br)cc1 | -12 | -1.7 | -3 | 8 | -8%
CCC(Oc1ccc(Br)cc1Cl)C(=O)Nc1nnc(C2CC2)s1 (stereo not given) | x | 0.3 | x | -14 | x
CC1CCCCC1NC(=O)CSc1nnc(-c2ccccc2)n1N (stereo not given) | -31 | 4.3 | -2 | 1 | 4%
Cc1nn(CC(=O)c2cccc(Cl)c2)c(C)c1[N+](=O)[O-] | x | 2.7 | 7 | -1 | 0%

Of the compounds above, 3 have a furan ring, fused or not:
SMILES | YopH inh | RecA splice inh | Arbovirus anti | Mtb bLac sens | Mtb H37Rv | others
Cc1[nH]c(=S)c(C#N)c(-c2ccco2)c1C(=O)N(C)C | x | -0.4 | 12 | -3 | -5%
O=C(Nc1nc(-c2ccccn2)cs1)c1cc2ccccc2o1 | x | -12 | -24 | 82 | 2.6µM*
O=C(N/N=C/c1ccc2c(c1)OCO2)c1ccc(Br)o1 | -4 | -1.3 | -9 | -5 | -8%

Next part
SMILES | YopH inh | RecA splice inh | Arbovirus anti | Mtb bLac sens | Mtb H37Rv | others
Cn1cccc1C(=O)NC(=O)COC(=O)CNC(=O)c1ccc(Cl)cc1Cl | x | 1.0 | -2 | -10 | -13%
COc1ccc(OC)c(/C=N/NC(=O)c2ccncc2)c1 | x | -5.8 | x | 98 | x
COc1ccccc1Nc1cc(C)nc2c(C)ccc([N+](=O)[O-])c12 | 6 | -43 | -2 | 11 | 3%
CN1c2ccccc2Oc2nnc(Cl)cc21 | x | -38 | 2 | -2 | 2%
COc1ccc([N+](=O)[O-])cc1NC(=O)CSCc1ccccc1C | -12 | 5.1 | 3 | -6 | 5%
CC(Sc1ccc2ccccc2c1)C(=O)NC(N)=O (stereo not given) | x | 1.2 | -6 | 3 | 2%
COc1cc(CNCc2ccccn2)ccc1OCc1ccc(Cl)cc1Cl | -46 | -6.7 | -40 | 98 | 6µM*
Cc1ccc(NC(=O)CSc2nn(-c3ccc(Cl)cc3)c(=S)s2)cc1S(=O)(=O)N(C)C | -25 | 6.8 | -3 | -3 | 9%
CCN1CCc2c(OCC(=O)Nc3cccc(C)c3)cccc2C1=O | x | 5.8 | -8 | 3 | 1%
Cc1ccc(S(=O)(=O)Cn2nnnc2C(CC(C)C)N2CCN(C(=O)c3ccco3)CC2)cc1 (stereo not given) | -6 | 2.3 | 8 | 4 | 7%
O=C(c1ccc(Cn2ccc([N+](=O)[O-])n2)cc1)N1CCN(Cc2ccccc2)CC1 | x | 4.9 | x | -9 | -5%
CC(=O)Nc1ccc(OCCF)cc1 | x | 2.0 | -3 | 3 | 5%

The last five compounds of the part before lead into the next:
SMILES | YopH inh | RecA splice inh | Arbovirus anti | Mtb bLac sens | Mtb H37Rv | others
Cc1ccc(NC(=O)CSc2nn(-c3ccc(Cl)cc3)c(=S)s2)cc1S(=O)(=O)N(C)C | -25 | 6.8 | -3 | -3 | 9%
CCN1CCc2c(OCC(=O)Nc3cccc(C)c3)cccc2C1=O | x | 5.8 | -8 | 3 | 1%
Cc1ccc(S(=O)(=O)Cn2nnnc2C(CC(C)C)N2CCN(C(=O)c3ccco3)CC2)cc1 (stereo not given) | -6 | 2.3 | 8 | 4 | 7%
O=C(c1ccc(Cn2ccc([N+](=O)[O-])n2)cc1)N1CCN(Cc2ccccc2)CC1 | x | 4.9 | x | -9 | -5%
CC(=O)Nc1ccc(OCCF)cc1 | x | 2.0 | -3 | 3 | 5%
CCCc1nnc(NC(=O)CCC(=O)N2CCN(c3ccccn3)CC2)s1 | -22 | -0.8 | -3 | 28 | -4%
Cc1cccc2cc3ccccc3nc12 | x | 0.5 | x | -1 | x
N#CC1(NC(=O)COC(=O)Cn2[nH]c(=O)c3ccccc3c2=O)CCCCC1 | x | -3.2 | x | 4 | x
COc1ccc(CCNC(=O)CC2SC(=NCCC(C)C)NC2=O)cc1OC (stereo not given) | -38 | -0.1 | -4 | -3 | -3%
CCOc1ccc(NC(=O)c2sc3nc(N4CCOCC4)c4c(c3c2N)CCCC4)cc1 | x | -2.4 | x | 20 | x
Cc1ccc(C)c(NC(=O)CSc2nc(C)cc(C)c2C#N)c1 | -4 | 0.0 | -11 | 7 | -7%
O=[N+]([O-])c1cccc(Cl)c1NCCNS(=O)(=O)c1ccccc1 | -25 | 2.6 | 8 | -4 | 15%
Cc1ccc(-c2csc(NC(=O)CCNC(=O)c3ccccc3Cl)n2)cc1 | -13 | 8.6 | 19 | 26 | 0%
Cc1nc(NC(=O)c2ccco2)sc1C(=O)Nc1ccc(Br)cc1 | -51 | 1.5 | -31 | 0 | -7%
COc1ccccc1C(=O)N/C(=C\c1ccc(Br)cc1)C(=O)NCCO | -29 | 2.5 | -4 | -3 | -12%
COC(=O)c1ccccc1SC1CC(=O)N(c2cccc(C)c2)C1=O (stereo not given) | -15 | 0.6 | 1 | -5 | 1%
CCOC(=O)C1=C(C)NC(=O)/C1=C\N(C)C | x | 0.8 | 1 | -2 | 6%
Cc1cc(=O)oc2c(C)c(OCC(=O)NCC3CCC(C(=O)O)CC3)ccc12 (stereo not given) | x | 9.1 | x | -5 | x
CC(=O)c1cccc(N(CC(=O)Nc2ccc(F)cc2)S(C)(=O)=O)c1 | -12 | -3.1 | 8 | -4 | 2%
CCC(CC)=N/N=C/c1c(O)n(CC)c2cc(C3=NNC(=O)CC3)ccc12 | 6 | -3.5 | -4 | -8 | -3%
Cc1cccc(CSCC(=O)NCc2ccc(S(N)(=O)=O)cc2)c1 | x | -3.1 | 5 | -8 | 4%
COc1ccc(-c2noc(CN(C)C(=O)CCN3C(=O)[C@H]4CC=CC[C@H]4C3=O)n2)cc1 | x | -0.4 | x | -4 | x
OC(COc1ccccc1)CN1CCCCCC1 (stereo not given) | x | -2.0 | 5 | -9 | -1%

2 neighbouring records already listed, quoted:
SMILES | YopH inh | RecA splice inh | Arbovirus anti | Mtb bLac sens | Mtb H37Rv | others
COc1ccc2c(c1)c(C(=O)CN1CCN(Cc3ccccc3)CC1)c(C)n2C | x | -0.6 | x | -1 | -1%
Cc1ccc(CCNC(=O)CN2C(=O)COc3ccccc32)cc1 | -54 | -1.0 | 3 | 7 | 5%

These rows are one share of the data, so the mix of outcomes need not match the whole.
